High-throughput results from PubChem BioAssay.
H5N1 antiviral – MDCK cell protection from H5N1 avian flu | cytopathic effect, luminescence, 72 h; hits give high values; no value below 0 was filed and about half of the inactive calls have no number; reference of the scale not given here | inhibition, % at 50 µM | hit rate 0.07% among 96,000 | AID 740, 2007; in the data active = inhibition above about 25%
Numbers without * were called inactive; i = inactive.

SMILES | H5N1 antiviral
CS(=O)(=O)N(CC(=O)N1CCCCCC1)c1cccc(Br)c1 | i
O=C(Cn1cnc2c(nnn2Cc2ccccc2)c1=O)NCc1ccco1 | i
O=C1OCC(CO)(CO)N=C1NNc1cc(Cl)ccc1Cl | i
Cc1cccc(Nc2nc(NC(C)C)nc(Oc3ccc(=O)n(C)n3)n2)c1 | i
O=C(O)C1C2CCC(C2)C1C(=O)NCc1ccco1 (stereo unspecified) | i
O=C(CCC(=O)N(Cc1ccco1)C(C(=O)NC1CCCC1)c1ccncc1)Nc1cccnc1 (stereo unspecified) | 0.4
COc1ccc(NC(=O)CN2CCC(C(N)=O)(N3CCCCC3)CC2)cc1 | i
CCn1nccc1C(=O)Nc1ccc(Cl)cn1 | i
CCc1nnc(NC(=O)CSc2nnc(Cc3ccccc3)o2)s1 | i
CCc1nnc(NC(=O)CCC(=O)O)s1 | 2.2
CC(=O)Nc1nc(=S)n(-c2ccccc2)[nH]1 | 0.5
COc1ncnc2c1oc1nc(C(C)C)c3c(c12)CC(C)(C)OC3 | 0.3
CS(=O)(=O)Nc1nnc(Cc2ccccc2)s1 | i
O=C1N/C(=N\N=C\c2ccc3ncccc3c2)SC1Cc1ccc(SC(F)F)cc1 (stereo unspecified) | i
CCCCCCCC(=O)NNC(=O)c1ccc(F)cc1 | i
CC(C)CNC(=O)C1CCN(c2ccc(S(=O)(=O)N3CCOCC3)cc2)CC1 | i
CC1=C(C(N)=O)C(c2sccc2C)n2nnnc2N1 (stereo unspecified) | 1.2
CC1(C)CCCN(C(=O)N2c3ccccc3Sc3ccccc32)C1 | 0.6
CCOC(=O)C1=C(C)N(C)C(=O)NC1c1cc2c(cc1Br)OCO2 (stereo unspecified) | i
COc1cc(C2C(C#N)=C(N)Oc3cc(O)ccc32)cc(OC)c1OC (stereo unspecified) | i
CC(=O)N1CCN(c2ccc(NC(=O)c3ccc4c(c3)OCO4)cc2)CC1 | i
O=C(OCC(=O)N1CCOCC1)c1ccc(Cl)nc1 | 0.3
Cc1cc(NC(=O)CSc2nnnn2C)n(-c2ccccc2)n1 | 1.1
O=C(OC(C(=O)O)C(OC(=O)c1ccccc1)C(=O)NCc1ccccc1)c1ccccc1 (stereo unspecified) | i
O=C(c1ccc2c(c1)OCCO2)N(c1ccccn1)C1CCCCC1 | i
Cc1nc(NC(=O)c2ccccc2)sc1-c1csc(Nc2cccc(Cl)c2)n1 | i
CCOc1cc(C)nc(Oc2ccc(=O)[nH]n2)n1 | 0.4
CCOC(=O)c1sc(NC(=O)CSc2nnc(-c3ccco3)n2CC)c(C(=O)OCC)c1C | i
COc1ccc(-c2noc(C3CCCN(S(=O)(=O)c4cccc(Cl)c4C)C3)n2)cc1OC (stereo unspecified) | 0.6
N#C/C(=N\Nc1ccccc1)C(=N)N1CCCCC1 | 2.5
CCN(C(=O)Cn1c(=O)n(Cc2ccccc2)c(=O)c2ccccc21)c1cccc(C)c1 | 0.9
Cc1ccc2c(c1)c(=O)c1c3n2CCN(C(=O)CCl)C3CC1 (stereo unspecified) | 0.5
CCOC(=O)c1ccc(NC(=O)c2cc3ccccc3o2)cc1 | i
CCOc1ccc(-c2noc(CCC(=O)NC)n2)cc1OCC | i
CN(C)CCNCc1ccc(OC2CCCC2)cc1 | i
COc1ccc(-c2nc3ccccc3s2)cc1O | i
CCC(=O)Nc1ccc(-c2nnc(SCc3ccc(C(=O)Nc4nccs4)cc3)n2CC)cc1 | i
O=C(Nc1ccc(-c2nc3ccccc3o2)cc1)c1ccc2c(c1)OCO2 | i
O=CN1CC(=O)N(c2ccccc2)c2c([nH]c3ccccc23)C1 | 1.3
CCOC(=O)C1=C(C)N(C2CCCCC2)C(=O)C1 | 0.4
Oc1ccc2ccccc2c1C=NC12CN3CCN(CN(C3)C1)C2 | 0.3
CC1=NN(C(N)=S)C(=O)C1N=Nc1c(C)cc(C)cc1C (stereo unspecified) | i
CCc1nnc(NC(=O)CSc2nccn2-c2cccc(C)c2)s1 | i
CNC(=O)CN(C1CCCCC1)S(=O)(=O)c1ccc(F)cc1 | 1.3
Cc1cc(C)nc(SCc2nnc(SCc3ccccc3Cl)o2)n1 | i
CCCCOP(=O)(c1ccc(N(C)C)cc1)C(O)c1ccccc1F (stereo unspecified) | 0.7
O=C(CSc1nc2ccccc2[nH]1)Nc1cc(C(F)(F)F)ccc1N1CCOCC1 | i
CC(C)Oc1ccc(C(=O)NCc2cccs2)cc1 | i
CCCOP(=O)(OCCC)c1c([N+](=O)[O-])cc(C(F)(F)F)cc1[N+](=O)[O-] | 1.1
COc1ccc(Nc2ncc(C(=O)N3CCN(c4ccc(F)cc4)CC3)c3ccccc23)cc1 | i
O=C(c1cc2n(n1)C(C(F)(F)F)CC(c1ccc(Cl)cc1)N2)N1CCCC1 (stereo unspecified) | i
CN(C)c1ccc(NC(=O)Oc2ccccc2)cc1 | 0.5
Cc1ccc(-c2cc(C(F)(F)F)nc(SCC(=O)c3cccc([N+](=O)[O-])c3)n2)cc1 | i
CCOC(=O)c1c(NC(=S)Nc2ccc(Cl)cc2)sc(C)c1C | i
O=C(CSC1=NCCS1)NCc1ccco1 | 0.8
COc1cc(/C=C2/C(=N)N3C=CSC3=NC2=O)ccc1OCCCOc1cc(C)ccc1C | i
COc1ccc(C(CNC(=O)CN2C(=O)NC3(CC(C)CC(C)(C)C3)C2=O)N2CCOCC2)cc1 (stereo unspecified) | i
O=C(CN1CCCC1=O)N1CCOCC1 | i
Cc1ccc2c(c1)N(CC(=O)Nc1ccc3c(c1)OCCO3)C(=O)CO2 | 1.2
COc1ccc2c(c1)-c1nc(NC(=O)c3cccs3)sc1CC2 | i

More structures follow.
SMILES | H5N1 antiviral
O=C(NCCc1ccccc1)N1c2ccccc2Sc2ccccc21 | i
COC(/C=C/Nc1ccc(C)c(C)c1)=C(C#N)C#N | 0.4
Cc1ccc(-c2cc(C(F)F)nc(NCC3CCCO3)n2)cc1 (stereo unspecified) | 0.1
CCN1CCN(S(=O)(=O)c2ccc(Br)s2)CC1 | 1.3
CCOC(=O)C1C(=O)CC(C)(O)C(C(=O)OCC)C1c1ccc(OCC)cc1 (stereo unspecified) | 1.6
NC(=O)Cn1nnc(-c2ccc(C(F)(F)F)cc2)n1 | i
NNC(=O)CNC(c1ccccc1)c1cc(Br)ccc1NC(=O)c1ccccc1Br (stereo unspecified) | 1.9
O=C(Nc1ccccc1NC(=O)c1c(F)c(F)c(F)c(F)c1F)c1c(F)c(F)c(F)c(F)c1F | i
Cc1ccc2c(c1)c(C)c(C)n2CC(O)Cn1nnc2ccccc21 (stereo unspecified) | 0.3
Cc1cc(S(=O)(=O)NCC(C)C)ccc1OCC(=O)NCc1ccccn1 | i
O=C(COc1ccccc1)N1CCN(C(=O)c2ccco2)CC1 | i
CSc1ccccc1N=Cc1nc(-c2ccccc2)oc1O | 2.8
Cc1noc(C)c1S(=O)(=O)NC1CCCc2ccccc21 (stereo unspecified) | i
Cc1ccc(NC(=O)CC(O)(C(F)(F)F)C(F)(F)F)cc1 | i
COc1ccc(NC(=O)CN2CCN(CC(=O)Nc3ccccc3Cl)CC2)cc1Cl | i
c1ccc(-c2cnc(CSc3ncnc4sccc34)o2)cc1 | 3.3
CCOC(=O)/C(C#N)=C(/C)c1ccc(OC)cc1 | i
Cc1cc2nc(SCC(=O)Nc3nonc3C)c3c(c2cc1C)CCCC3 | i
CC1(C)CC(C(=O)Nc2nccs2)CCO1 (stereo unspecified) | 1.5
O=C(CSc1n[nH]c(-c2cccs2)n1)N1CCN(S(=O)(=O)c2ccccc2)CC1 | 2.1
CCOCCCNC(=O)C1CCN(S(=O)(=O)N2CC(C)CC(C)C2)CC1 (stereo unspecified) | 0.5
CC(C)CCNC(=O)c1ccc(CSCc2cccc(F)c2)o1 | i
Cc1ccc(S(=O)(=O)N2CCN(S(=O)(=O)N(C)C)CC2)c(C)c1 | 0.9
CCN1C(=O)/C(=C2/C=CC=CN2C)SC1=S | i
COC(=O)c1[nH]c(=O)c2ccccc2c1OCc1ccccc1 | 1.3
O=C(COc1cc(Cl)c(Cl)cc1Cl)NCCN1CCOCC1 | i
CCOC(=O)CC1C(=O)NCCN1S(=O)(=O)c1ccc(Cl)c(Cl)c1 (stereo unspecified) | 0.2
Cc1ccc(OCC(=O)NC2=NCCS2)cc1 | i
CCOC(=O)CSc1nc2cc(S(=O)(=O)Nc3ccccc3OC)ccc2o1 | 0.1
Oc1ccc(COCc2ccccc2)c2cccnc12 | i
O=C(Cn1nnc2ccccc21)NC1CCCCC1 | 0.1
Cc1ccc(-c2nc(-c3ccccn3)no2)cc1 | i
CCOC(=O)N1CCC(NC(=O)C2CCN(S(=O)(=O)N3CCC(C)CC3)CC2)CC1 | i
CCC(Sc1nc2n[nH]c(C)c2c(=N)n1-c1cc(Cl)ccc1C)C(=O)N1CCOCC1 (stereo unspecified) | 0.4
CC(C)C(NS(=O)(=O)c1ccc2c(c1)oc(=O)n2C)C(=O)N1CCN(c2ccccc2F)CC1 (stereo unspecified) | 1.2
CC(=O)OC1N=C(c2ccccc2)c2cc(C)ccc2NC1=O (stereo unspecified) | i
O=C(COc1ccc(F)cc1)OCCN1CCOCC1 | i
COc1ccc(CCNC(=O)c2c[nH]c3ccccc3c2=O)cc1OC | i
Cc1ccc(C2=N/C(=C/c3cccs3)C(=O)N2Nc2ccccc2)cc1 | i
CN1CCN(c2nccc3c2ncn3C)CC1 | 1.0
CC(C)CCNC(=O)CN(CCCN1CCOCC1)C(=O)Cn1nnc(-c2ccc(F)cc2)n1 | 0.3
CC(=NCc1ccc2c(c1)OCO2)c1c(O)n(C)c(=O)n(C)c1=O | 0.1
COC(=O)c1nnc(-c2ccccc2)c(-c2ccccc2)n1 | 0.1
COc1cccc(/C=N/NC(=O)c2csc(-n3nc(C)cc3C(F)(F)F)n2)c1 | i
COC(=O)[C@@H](NC(=O)NC1CCCc2ccccc21)C(C)C (stereo partly specified) | 0.7
COC(=O)c1c(NC(=O)CN2CCN(C(=O)c3ccco3)CC2)c2c(C)cccc2n1C | 0.3
CCCN1C(=O)c2cc(C(=O)NCc3cccs3)ccc2C1O (stereo unspecified) | 1.0
CC(C)=C1C2CC2C2C(C(=O)O)C12 (stereo unspecified) | i

A draw from above in order of heavy-atom count, descending.
SMILES | H5N1 antiviral
CC(C)CCNC(=O)CN(CCCN1CCOCC1)C(=O)Cn1nnc(-c2ccc(F)cc2)n1 | 0.3
COC(=O)c1c(NC(=O)CN2CCN(C(=O)c3ccco3)CC2)c2c(C)cccc2n1C | 0.3
CCC(Sc1nc2n[nH]c(C)c2c(=N)n1-c1cc(Cl)ccc1C)C(=O)N1CCOCC1 (stereo unspecified) | 0.4
CCOC(=O)N1CCC(NC(=O)C2CCN(S(=O)(=O)N3CCC(C)CC3)CC2)CC1 | i
COc1cccc(/C=N/NC(=O)c2csc(-n3nc(C)cc3C(F)(F)F)n2)c1 | i
COc1ccc(CCNC(=O)c2c[nH]c3ccccc3c2=O)cc1OC | i
CC(=NCc1ccc2c(c1)OCO2)c1c(O)n(C)c(=O)n(C)c1=O | 0.1
CCCN1C(=O)c2cc(C(=O)NCc3cccs3)ccc2C1O (stereo unspecified) | 1.0
COC(=O)c1nnc(-c2ccccc2)c(-c2ccccc2)n1 | 0.1
O=C(COc1ccc(F)cc1)OCCN1CCOCC1 | i
O=C(Cn1nnc2ccccc21)NC1CCCCC1 | 0.1
Cc1ccc(-c2nc(-c3ccccn3)no2)cc1 | i
CN1CCN(c2nccc3c2ncn3C)CC1 | 1.0
CC(C)=C1C2CC2C2C(C(=O)O)C12 (stereo unspecified) | i

(further entries)
SMILES | H5N1 antiviral
O=C(Nc1cccnc1)c1cnn2cccnc12 | 0.6
COc1ccccc1C(C)NC(=O)c1ccc(C)o1 (stereo unspecified) | 0.5
Cc1cn(CC2COC(C)(C)O2)c(=O)[nH]c1=O (stereo unspecified) | i
Cc1ccc(S(=O)(=O)N2CCC(C(=O)NCCN3CCCCCC3)CC2)cc1 | i
CC(/C=N/NC(=O)C(O)c1ccccc1)=C\c1ccccc1 (stereo unspecified) | i
COc1cc(NC(=O)CSCc2cnn(-c3ccccc3)c2-n2cccc2)cc(OC)c1 | 0.7
N#CCCN(CCC#N)C(=O)c1ccc(Cl)cc1 | 0.7
O=c1[nH]nc(Cc2ccc(Cl)cc2Cl)c2ccccc12 | i
Fc1ccc(N2CCN(c3nc(-c4ccco4)cc(C(F)(F)F)n3)CC2)cc1 | i
CCOC(=O)c1sc(N)c(C#N)c1CSc1nc2ccc(OCC)cc2[nH]1 | i
O=C(CSc1nnc(-c2ccccc2Br)o1)Nc1cccc2ccccc12 | i
CCOc1cc(CNc2ccc3c(c2)OCCO3)cc(Br)c1OC | i
CCn1c(SCC(=O)Nc2ccc(S(N)(=O)=O)cc2)nnc1-c1ccccc1OC | i
COC(=O)COc1cccc(NC(=O)c2ccc(C)cc2)c1 | i
Cc1ccc(-c2cnc(NC(=O)CCC(=O)N(C)Cc3ccccc3)n2C)cc1 | i
CCOc1ccc(NC(=S)Nc2ccc(C)c([N+](=O)[O-])c2)cc1 | i
O=S(=O)(c1cccc2cccnc12)n1cnc2ccccc21 | 0.4
Cc1cc(C)n(-c2nncc(-c3ccccc3)n2)n1 | 4.4
CCN(CC)CCn1cnc2c([nH]c3cccc(OC)c32)c1=O | 1.8
Cc1ccc(NS(=O)(=O)c2ccc(CCC(=O)N3CCOCC3)cc2)cc1 | 0.8
O=c1cc(N2CCCCC2)nc2n1CCCS2 | 1.0
O=C(CN1CCCN(S(=O)(=O)c2ccc(F)cc2)CC1)Nc1ccccc1Br | 5.7
CN1CCc2c(sc3nc(SCC(=O)N4CCOCC4)nc(N)c23)C1 | 0.7
CN(C)C(=O)CSc1nnc(-c2cccnc2)n1-c1ccccc1 | i
O=C1C(Cc2ccccc2)NC(=S)N1c1ccccc1 (stereo unspecified) | i
CCCC/C(C)=N/NC(=O)C(=O)NCCc1ccccc1 | i
CCc1c(C)c2ccc(OCC(=O)OC)cc2oc1=O | i
CC(=O)Nc1nn(C)c2nc3cc(C)ccc3cc12 | i
O=C(NCc1cn2ccccc2n1)c1ccccc1 | 2.2

A portion of the library; rates above refer to the full screens.
